Compound activity as filed in PubChem BioAssay.
Cruzain inh noDet: inhibitors of Trypanosoma cruzi cruzain without detergent; P25779; purified cruzain, Z-FR-AMC fluorescence, no detergent; Potency, µM, for the others: max response, negative = inhibition, hits mostly inhibitors; 200,000 tested, 2.3% active;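 also: plate controls were enzyme without inhibitor for no effect and buffer without enzyme for full effect; nearly all actives have a fitted effect of over 40% in size; top concentration of the series not given in the record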
Target sequence (P25779 123-467 limits assumed): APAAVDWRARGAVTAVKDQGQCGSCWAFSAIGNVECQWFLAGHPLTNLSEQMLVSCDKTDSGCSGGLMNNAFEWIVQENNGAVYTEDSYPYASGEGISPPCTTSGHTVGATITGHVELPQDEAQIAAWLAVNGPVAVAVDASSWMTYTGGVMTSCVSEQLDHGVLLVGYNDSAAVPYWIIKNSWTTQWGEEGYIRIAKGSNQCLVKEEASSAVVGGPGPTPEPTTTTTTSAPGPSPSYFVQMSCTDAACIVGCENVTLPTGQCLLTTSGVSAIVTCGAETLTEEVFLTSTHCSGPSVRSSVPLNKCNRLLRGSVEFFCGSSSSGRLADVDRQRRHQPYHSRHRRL
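Purified cruzain at 1.5 nM, pre-incubated 15 min with compound at room temperature in 100 mM sodium acetate pH 5.5, 5 mM DTT, 0.00005% Triton X-100. Reaction started with 2 uM Z-FR-AMC; AMC fluorescence increase over 60 s gives rate.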
Cruzain inh Det: blocks cruzain activity in presence of Triton detergent; AID 1478; P25779; purified cruzain, Z-FR-AMC fluorescence, 0.01% Triton; Potency, µM, without a hit: max response, negative = inhibition, most hits filed as inhibitors; 200,000 tested, 0.43% active;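 also: plate controls were neutral wells for no effect and buffer without enzyme for full effect; nearly all actives have a fitted effect of over 40% in size; top concentration of the series not given in the record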
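Steps: dispense cruzain (1.5 nM final) in acetate buffer pH 5.5 with DTT and 0.01% Triton X-100; pin-transfer compounds; incubate 15 min RT; add Z-FR-AMC (2 uM final); read fluorescence every 30 s, using the 60 s intensity change.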
NS1 inh: inhibitors of influenza NS1 protein function. S. cerevisiae slowed by influenza A NS1, growth recovery by OD600. Potency, µM (highest dose often 46.1 µM), for inactives: at the highest dose activity, positive = more growth. 270,000 tested, 0.4% active. AID 2326; active means well fitted rising curve with a large enough effect; inconclusive means small, poorly fitted or top-dose-only effect; inactive means no such curve, though single readings can be large or run the other way; also: nearly all actives have a fitted effect of over 50% in size
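In this qHTS, NS1 from influenza A is expressed in budding yeast, where it slows growth. Cells are switched from glucose to 2% galactose medium (pH 6.0, -URA), treated with compound, and growth recovery is read at OD600.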
MARV entry inh: inhibitors of Marburg virus binding or cell entry. Marburg virus pseudotyped entry inhibition, cell reporter; control for the full effect not named in the record; about a third of the inactives were read at about 46 µM. Potency, µM (top dose mostly 37.8 µM), without a hit: at the top dose activity change, negative = inhibition, usual class: inhibitors. 300,000 tested, 1.8% active. AID 540276; active = well fitted inhibition curve with a large enough effect; inconclusive = small, poorly fitted or top-dose-only effect, or effect the other way; inactive = flat fitted curve, though single readings scatter; tested in HEK293 cells; about a fifth of its hits are not listed in these tables; also: % is scaled to controls: 0 for no effect and ±100 for the full control effect; luciferase read-out
StopGo reporter: FMDV 2A StopGo reporter, luciferase signal | human cells with a luciferase reporter of 2A StopGo recoding; control for the full effect not named in the record | Potency, µM (doses to about 57.9 µM), for the others: at the top dose signal change, negative = less light | 410,000 tested, 1.2% active; active = well fitted falling curve with a large enough effect; inconclusive = small, poorly fitted or top-dose-only effect; inactive = no such curve, though single readings can be large or run the other way; tested in HEK293T cells; also: % is scaled to controls: 0 for no effect and ±100 for the full control effect; nearly all actives have a fitted effect of over 45% in size; luciferase light after 4 h
SARS PLpro yeast: blocks SARS-CoV papain-like protease in a yeast assay; 330,000 tested, 0.19% active; S. cerevisiae expressing SARS-CoV PLpro, growth rescue; control for the full effect not named in the record; AID 485353; Potency, µM (doses to about 32.9 µM), for inactives: top-dose activity, positive = growth rescue; active means well fitted rising curve with a large enough effect; inconclusive means small, poorly fitted or top-dose-only effect; inactive means no such curve, though single readings can be large or run the other way; also: 0% is about no effect; nearly all actives have a fitted effect of over 55% in size; growth read by luminescence after 48 h
Lassa entry inh: Lassa virus entry inhibition; Lassa virus pseudotype entry inhibition, cell reporter; control for the full effect not named in the record; 300,000 tested, 1.2% active; Potency, µM (titrated, usually from 37.9 µM), without a hit: top-dose activity change, negative = inhibition, hits mostly inhibitors; active means well fitted inhibition curve with a large enough effect; inconclusive means small, poorly fitted or top-dose-only effect, or effect the other way; inactive means flat fitted curve, though single readings scatter; tested in HEK293 cells; also: % is scaled to controls: 0 for no effect and ±100 for the full control effect; nearly all actives have a fitted effect of over 50% in size; luciferase read-out
RE007 growth inh: less growth of the S. pombe RE007 Vpr strain; S. pombe RE007 Vpr strain, BacTiter-Glo ATP luminescence, 24 h; control for the full effect not named in the record; Potency, µM (top dose mostly 92.2 µM), without a hit: at the top dose activity change, negative = less growth; 360,000 tested, 0.21% active; active = well fitted falling curve with a large enough effect; inconclusive = small, poorly fitted or top-dose-only effect; inactive = no such curve, though single readings can be large or run the other way;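 also: % is scaled to controls: 0 for no effect and ±100 for the full control effect; nearly all actives have a fitted effect of over 50% in size; the assay follows cell death caused by Vpr and the record does not say whether a fall means rescue or toxicity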
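Fission yeast RE007 carrying one integrated HIV-1 vpr copy, seeded at OD 0.01 in PMG+AL medium with 23 nL pinned compound. Grown 24 h at 30 degrees; viability read by BacTiter-Glo luminescence after 5 min.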
The depositor's hits bear a star; ? = inconclusive; nt = not tested or not shown; & = joins results of further samples; [ ] = remark or other dose. Unless noted, calls follow the shape of the dose curve; as a rule, active = well fitted curve in the direction sought with a large enough effect; inconclusive = small, poorly fitted or top-dose-only effect, or another doubt; inactive = no such curve, though single readings can be large; an effect the other way counts as inactive or inconclusive. Potency is read from the fitted curve at half-maximal effect.

SMILES	Cruzain inh noDet	Cruzain inh Det	NS1 inh	MARV entry inh	StopGo reporter	SARS PLpro yeast	Lassa entry inh	RE007 growth inh
N#Cc1ccc(N2Cc3ccccc3/C2=N/C(=O)Nc2ccc(Cl)cc2)cc1	?	-4.1%	18%	-3%	-6%	-9%	-25%	-1%
COCCn1c(SCC(=O)NC2CCCCC2)nnc1-c1ccncc1	nt	nt	-1%	?	18%	-2%	2%[46.1 µM]	5%
Cn1c(CNc2cccc(Cl)c2)nnc1SCC(=O)OC1CCCCC1	6%	-1.5%	-35%	-5%	-25%	3%	10%	-4%
COc1ccc(NC(=O)c2cc3n(n2)C(C(F)(F)F)CC(c2ccc4c(c2)OCO4)N3)cc1OC (stereo not drawn)	-6%	-4.3%	-90%	?	-7%	8%	-15%[14.3 µM]	-6%
Nc1nc(-c2ccc(F)cc2)cc(C(F)(F)F)n1	5%	3.1%	7%	3%	-19%	11%	?	13%
Cc1ccc(C(=O)Nc2cccc(C(=O)O)c2)cc1S(=O)(=O)N1CCCC1	-9%	0.0%	nt	nt	-11%	nt	19%[46.1 µM]	nt
O=C1NC(c2ccco2)Nc2sc3c(c21)CCN(Cc1ccccc1)C3 (stereo not drawn)	?	-12%	15%	nt	-2%	12%	nt	-7%
O=C(CCCOc1ccc(Cl)cc1Cl)NCc1ccncc1	nt	nt	0%	16%[46.1 µM]	17%	-1%	?	10%
CCOC(=O)c1cc(S(=O)(=O)NCCc2ccc(OC)c(OC)c2)cn1C	nt	nt	-7%	-2%[46.1 µM]	11%	2%	3%[46.1 µM]	7%
Cc1c(Cl)cccc1NC(=O)CCN1CCN(C)CC1	nt	nt	6%	nt	6%	-1%	nt	15%
COc1ccc(C)cc1NC(=O)CSc1nc(=O)n(Cc2cccnc2)c2c1CCC2	?	-2.0%	nt	nt	-5%	nt	-1%[46.1 µM]	nt
Clc1ccccc1C1SCC2Nc3ccccc3CN21 (stereo not drawn)	-27%	-7.3%	-1%	?	14%	-15%	2%	?
COCCCN(C(=S)NC(=O)c1ccc(C(C)(C)C)cc1)c1c(N)n(Cc2ccccc2)c(=O)[nH]c1=O	-9%	-5.8%	?	28%	0%	-11%	?	16%
Cc1cccc(N(C(=O)Cn2nnc3ccccc32)C(C(=O)NCc2ccco2)c2ccncc2)c1C (stereo not drawn)	16%	-0.5%	-14%	?	50%[activator]	1%	-1%	-8%
CC(C)c1noc(-c2ccccc2OCC(=O)Nc2ccc([N+](=O)[O-])cc2)n1	11%	-4.6%	nt	5%[46.1 µM]	-3%	nt	15%[46.1 µM]	nt
O=c1cc(CSc2nc(NCc3ccc(Cl)cc3)c3ccccc3n2)nc2ccc(Cl)cn12	nt	nt	nt	-11%[46.1 µM]	-19%	nt	?	19%
Cc1c(NC(=O)COC(=O)Cc2ccc(Cl)cc2)c(=O)n(-c2ccccc2)n1C	1%	-0.8%	-17%	-1%[46.1 µM]	11%	3%	?	3%
CCc1cc(C(=O)O)c(NC(=O)C(c2ccccc2)c2ccccc2)s1	-5%	-8.0%	7%	-3%	-12%	0%	3%	-1%
Cc1ccc(NC(=O)c2ccccn2)cc1S(=O)(=O)N1CCOCC1	nt	nt	nt	1%	-7%	2%	21%	24%
O=C(O)CCC(=O)OC1CC2CCC1C2 (stereo not drawn)	0%	4.7%	-5%	13%	-14%	12%	11%	-12%
CC1Cc2ccccc2N1S(=O)(=O)c1cnc(Cl)c(Cl)c1 (stereo not drawn)	nt	nt	5%	nt	-9%	0%	nt	-6%
CN(C)CCN(C(=O)/C=C/c1cccs1)c1nc2ccc(Br)cc2s1	nt	nt	9%	nt	?	-4%	nt	12%
O=C(O)CSCC(=O)Nc1ccc(C(=O)O)cc1	-8%	2.7%	3%	8%	4%	-5%	5%	2%
Cc1ccc2cc(/C=C(\C#N)C(N)=O)c(N3CCCCC3)nc2c1	61%	-12%	-2%	-18%	-16%	4%	10%	-10%
FC(F)(F)c1ccccc1NC(=S)NC1CCN(Cc2ccccc2)CC1	nt	nt	0%	?	9%	1%	-4%[46.1 µM]	-6%
CCc1ccc(N2CC(C(=O)N/N=C/c3cc([N+](=O)[O-])ccc3O)CC2=O)cc1 (stereo not drawn)	nt	nt	-9%	-3%[46.1 µM]	-6%	5%	7.1µM*	-3%
CN(Cc1ccccc1)CC(O)COc1ccc(CNCCc2ccncc2)cc1 (stereo not drawn)	nt	nt	-3%	nt	-5%	0%	nt	-15%
COc1ccc(C(NC(=O)CNC(C)=O)C(=O)Nc2ccc(C(C)C)cc2)cc1 (stereo not drawn)	?	-2.5%	1%	3%	-21%	-1%	8%	-7%
Cc1ccc(-c2csc3ncnc(Oc4ccc5c(C)cc(=O)oc5c4)c23)cc1	?	-4.7%	4%	?	?	-6%	?	4%
COc1ccccc1NC(=O)C1=C(C)Nc2nc3ccccc3n2C1c1ccccc1Cl (stereo not drawn)	0%	-3.7%	nt	-4%[46.1 µM]	?	nt	26%[46.1 µM]	nt
CC(/C=C/c1ccco1)=N\NC(=O)c1cccnc1	-4%	-6.4%	10%	7%	nt	-2%	3%	-11%
CC(=O)c1cccc(NC(=O)NCCc2ccc(Cl)cc2)c1	nt	nt	0%	?	21%	-2%	14%[46.1 µM]	-1%
O=C(Nc1ccc(Cl)cc1)N(Cc1nc2ccccc2c(=O)[nH]1)Cc1cccs1	3%	-7.0%	6%	?	-28%	-2%	-7%	-6%
CCOc1ccc(NC(=O)C(C)N2C(=O)c3ccccc3S2(=O)=O)cc1 (stereo not drawn)	nt	nt	nt	4%	-3%	3%	?	0%
O=C(NNC(=O)c1cccc(-n2cnnn2)c1)c1ccccc1	nt	nt	nt	?	20%	3%	-5%	26%
CCOCCCNC(=O)c1ccc(-n2c(-c3ccccc3)cc3c2CCC(C)C3)cc1 (stereo not drawn)	-11%	-0.5%	nt	nt	-24%	nt	-1%[46.1 µM]	nt
O=S(=O)(c1ccccc1C(F)(F)F)N1CCOCC1	-4%	1.9%	?	-1%	-6%	3%	0%	6%
CCN(C(=O)Cc1nc(N)n[nH]1)C1(C(=O)Nc2ccccc2)CCCCC1	nt	nt	nt	?	7%	0%	-19%	6%
C=CCc1ccc(OCC(O)CN2CCN(Cc3ccccc3)CC2)c(OC)c1 (stereo not drawn)	nt	nt	0%	nt	-15%	0%	nt	-5%
CCC1CCCCN1C(=O)C1CC(c2cc(Cl)c(OC)cc2OC)=NO1 (stereo not drawn)	?	3.2%	-38%	2%	nt	-4%	-1%	2%
Cc1cc(C)c2c(N=NN3CCOCC3)[nH]nc2n1	?	-25%	-29%	-7%	-8%	-72%	7%	43%
O=C(c1ccc2c(c1)N(Cc1c(F)cccc1Cl)C(=O)c1ccccc1S2)N1CCC2(CC1)OCCO2	9%	-1.2%	nt	0%[46.1 µM]	6%	nt	-9%[46.1 µM]	nt
Cc1ccc(S(=O)(=O)N/N=C/c2c(F)cccc2Cl)cc1	1%	-5.9%	10%	?	38%[activator]	-34%	-7%	-5%
C=CCc1cccc2cc(C(=O)NC)c(=O)oc12	-2%	1.1%	-19%	2%[46.1 µM]	-16%	-1%	-15%	-28%
O=C(c1cccn2c(=O)c3ccc(Cl)cc3nc12)N1CCN(Cc2ccc3c(c2)OCO3)CC1	?	-3.7%	-111%	?	-14%	4%	-10%	0%
COc1ccc(/C=C/C(=O)NCCSCc2ccco2)cc1	-16%	-9.0%	-3%	9%	23%	-5%	-12%	6%
CCCCN(C)CCCNC(=O)Cn1c(=O)sc2ccccc21	-14%	5.2%	1%	-3%	-17%	-1%	0%	-9%
O=c1[nH]c(=S)c2[nH]c(=S)n(-c3ccccc3)c2[nH]1	nt	nt	nt	-12%[46.1 µM]	1%	nt	16%[46.1 µM]	4%
CN1C(=O)C(=Cc2cccnc2)C(=O)N(C)C1=O	nt	nt	-5%	15%	0%	1%	23%	2%
Nc1cccc2c1C(=O)N(C(=O)c1cccc(S(=O)(=O)N3CCCC3)c1)C2=O	-1%	-2.6%	10%	5%	-4%	17%	17%	28%

Next section:
SMILES	Cruzain inh noDet	Cruzain inh Det	NS1 inh	MARV entry inh	StopGo reporter	SARS PLpro yeast	Lassa entry inh	RE007 growth inh
CCOc1ccc(/C=C/c2nc(C#N)c(NCCCN(C)C)o2)cc1	?	-16%	8%	?	-8%&-6%	-4%	?	-20%
CCc1ccc(NC(=O)c2cnc3scc(C)n3c2=O)cc1	19%	-11%	-72%	nt	31%[activator]	-3%	nt	-8%
O=S(=O)(c1ccc(Cl)cc1)N1CCN=C1SCc1cccc(Cl)c1	-2%	-7.1%	-2%	-16%	?	-1%	?	-17%
Cc1ccc(O)c(NC(=O)COc2cc(C)ccc2C)c1	32µM*	2.2%	0%	-3%[46.1 µM]	13%	-3%	-1%	0%
CCOC(=O)c1cc2sc(C)cc2n1CC(=O)N1CCOCC1	-9%	2.6%	9%	6%	nt	5%	-9%	12%
CCOC(=O)/C=C/C(=O)OCC(=O)Nc1ccc(Cl)cn1	-5%	-4.7%	-157%	?	-19%	-22%	-7%	?
CCc1ccc(NC(=O)CSc2nnc(CNC(=O)c3ccco3)o2)cc1	nt	nt	-1%	nt	-9%	?	nt	-11%
Cc1cccc(C)c1OCCn1c(C2CC(=O)N(Cc3ccc(F)cc3)C2)nc2ccccc21 (stereo not drawn)	21%	-7.1%	nt	3%[46.1 µM]	?	nt	?	nt
COc1ccccc1N1CCN(C(=O)CCn2cnc3onc(-c4ccc(F)cc4)c3c2=O)CC1	-1%	-0.6%	nt	nt	-19%	nt	26%[46.1 µM]	nt
CCOC(=O)c1sc2nc(C)cc(-c3ccccc3)c2c1N	-4%	-6.2%	4%	-9%	0%	23%	-4%	-9%
O=C(N/N=C/c1cccnc1)c1cccc(S(=O)(=O)N2CCCC2)c1	nt	nt	4%	0%[46.1 µM]	-11%	0%	-7%[46.1 µM]	5%
